# Compound activity (PubChem BioAssay)
# MgrA-DNA mod: S. aureus MgrA activity modulators, primary screen, biochemical, S. aureus Newman, fluorescence polarization. MgrA-DNA binding. inhibition, %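 (about 10 µg/mL by stock and volumes)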. actives 0.13% (n = 84,000). AID 602314, 2012;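 active means above 50% in either of two replicates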;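 further: 0% = protein plus DNA without compound and 100% = DNA alone without protein; higher means less MgrA bound to DNA so lower polarization; one replicate is shown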
# Sa helicase inh: inhibitors of S. aureus replicative helicase, primary screen, biochemical, fluorescence unwinding readout. AID 485395, 2010. inhibition, %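 (tested at about 80 µM)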. replicative DNA helicase (DnaC/DnaB), Staphylococcus aureus. actives 0.05% (n = 120,000). purified S. aureus helicase, fluorescence unwinding assay; about half of the hits fall short of the stated cut;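 active means both duplicates at 50% or more, or one of them with a favoured structure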;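 further: 0% = mean of negative control wells and 100% = mean of positive control wells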
# * marks the source's active call; other numbers are inactive results; . = not tested or not shown.
# Every second line gives: MgrA-DNA mod | Sa helicase inh
> C=CCN(Cc1ccc(OC)c(OC)c1)C(=O)NC1CCCCC1
→ 0.7 | 21
> COC(=O)c1cc(=O)nc2sc3ccccc3n12
→ -3.0 | 1
> CN(C)S(=O)(=O)c1cccc(CN2C(=O)NC3(CCCCCC3)C2=O)c1
→ . | 3
> COC(=O)c1scc2c(Oc3ccccc3C(F)(F)F)cc(C(F)(F)F)nc12
→ -1.8 | .
> c1ccc(-n2ncc3c(N4CCC5(CC4)OCCO5)ncnc32)cc1
→ . | -3
> CCN1CCN(C(=O)CCNC(=O)c2cc(OC)c(OC)c(OC)c2)CC1
→ . | -6
> COc1ccc(NC(=O)c2cc(C)nn2-c2ccccc2)cc1
→ -4.7 | 9
> O=C(CN1C(=O)c2ccccc2S1(=O)=O)Nc1cccnc1
→ 0.4 | 10
> CCOc1ccc(-c2nc(-c3cc(C)n(CCOC)c3C)cs2)cc1
→ . | -4
> Cc1nn(C(=O)c2ccccc2)c(C)c1CN1C(=O)c2ccccc2C1=O
→ -2.2 | 11
> Cc1n[nH]c(=O)c2noc(/C=C/c3ccsc3)c12
→ 0.7 | .
> O=c1c2ccccc2cnn1CCc1nc2c3ccccc3ncn2n1
→ -1.2 | 4
> Cc1onc(NC(=O)NC(=O)c2ccccc2F)c1Br
→ 0.4 | .
> O=c1occ(CO)c(O)c1CN1CCc2ccccc2C1
→ 0.7 | 13
> Cc1nn(Cc2ccccc2)c(Cl)c1/C=N/NC(=O)c1cccnc1
→ . | -12
> CC(C)=CCOc1ccc2c3c(c(=O)oc2c1C)CCCC3
→ 0.0 | -1
> CN(C)C(=O)Cn1c(=O)n(C)c2ccccc21
→ . | 8
> CCCCC(=O)c1ccc(OC(C)C)cc1
→ -0.3 | 0
> O=C(NCC1CCCCC1)c1cn(-c2ccccc2)nc1-c1cccs1
→ . | -8
> CCN(CC)C(=O)CCc1nc(CN2CCN(S(=O)(=O)c3ccc(Br)cc3)CC2)no1
→ . | -27
> COc1cccc(N=Nc2c(N)[nH]n(-c3ccccc3)c2=O)c1
→ -0.2 | 5
> COc1ccccc1C(=O)COC(=O)Cc1ccc(Cl)cc1Cl
→ 0.8 | 10
> O=c1sc2ccccc2c2nc[nH]c12
→ -0.1 | 3
> COc1ccc(CN2C(=O)C(C)Oc3ccccc32)cc1 (stereo unspecified)
→ -2.8 | 15
> CN(C)c1cccc(C(=O)OCC(=O)NCc2ccccc2)c1
→ -1.0 | 4
> NC1=NS(=O)(=O)c2ccccc21
→ 3.8 | 14
> CCNc1cc(N2CCOCC2)c2noc3c2c1C(=O)c1ccccc1-3
→ . | -120
> Cc1cc(NCc2cccnc2)n2c(nc3ccccc32)c1C#N
→ . | -17
> Cc1cc2c(n1-c1ccc(C(=O)N3CCN(c4ccccc4)CC3)cc1)CCCCC2
→ 1.1 | 6
> O=C(O)CSCC(=O)Nc1cccc(C(=O)O)c1
→ -3.2 | .

# The closing five entries of the part above are carried over, then new ones follow.
# Every second line gives: MgrA-DNA mod | Sa helicase inh
> NC1=NS(=O)(=O)c2ccccc21
→ 3.8 | 14
> CCNc1cc(N2CCOCC2)c2noc3c2c1C(=O)c1ccccc1-3
→ . | -120
> Cc1cc(NCc2cccnc2)n2c(nc3ccccc32)c1C#N
→ . | -17
> Cc1cc2c(n1-c1ccc(C(=O)N3CCN(c4ccccc4)CC3)cc1)CCCCC2
→ 1.1 | 6
> O=C(O)CSCC(=O)Nc1cccc(C(=O)O)c1
→ -3.2 | .
> COC(=O)CCC(=O)c1oc2ccc(OC)cc2c1N
→ -0.1 | 13
> N/C(CC(=O)Nc1ccc(F)c(F)c1F)=N\O
→ 1.7 | .
> CCCNS(=O)(=O)c1ccc2[nH]c(=O)ccc2c1
→ 0.9 | 4
> CCc1nc2c(N(C)S(=O)(=O)c3ccc(C)cc3)nc3ccccc3n2n1
→ . | -21
> Cn1c(=O)cc(OCCCC(=O)NCc2ccccn2)c2ccccc21
→ . | 13
> CCOC(=O)c1sc2ccc(S(=O)(=O)N3CC(C)CC(C)C3)cc2c1N (stereo unspecified)
→ -0.9 | 2
> CCOC(=O)N1CCC(NC(=O)c2nn(-c3ccc(OC)c(Cl)c3)c(=O)c3c2c2ccccc2n3C)CC1
→ . | -9
> Cc1onc(-c2c(F)cccc2Cl)c1C(=O)NC(CN1CCOCC1)c1ccccc1 (stereo unspecified)
→ -2.2 | .
> O=C1/C(=C/c2ccccc2Cl)SC2N=C(c3ccccc3)NN12 (stereo unspecified)
→ 3.5 | 2
> O=C(CCn1c(=O)oc2ccccc21)NCCCN1CCCC1=O
→ . | -3
> CCC(NC(=O)NC1CCCCC1)c1ccccc1 (stereo unspecified)
→ -1.4 | 20
> O=C(c1ccc(-n2nc(C(F)(F)F)c3c2-c2ccoc2CC3)cc1)N1CCCc2ccccc21
→ . | -11
> Cc1cccc(N2CCN(CC(=O)N(C)Cc3ccccc3)CC2C)c1 (stereo unspecified)
→ . | -11
> Cc1nnn(C23CC4CC(CC(CC(=O)Nc5ccc(Cl)cc5)(C4)C2)C3)n1
→ -1.4 | 2
> CC(C)(C)N1CC(COc2ccccc2)OC1=O (stereo unspecified)
→ 0.1 | 1
> O=S1(=O)C=C(Sc2nnnn2-c2ccccc2)c2ccccc21
→ 11 | 4
> Nc1nonc1-c1noc(-c2ccccc2)n1
→ -3.0 | 11
> Cc1noc(C)c1S(=O)(=O)NCCN1CCN(c2ccccc2F)CC1
→ 0.1 | 4
> O=S(=O)(c1cc(Cl)ccc1Cl)N1CCOCC1
→ -0.7 | .
> O=C1c2ccccc2C(=O)N1CCOc1ccccc1
→ 5.8 | 2
> CCOC(=O)c1ccc2oc3ccc(O)cc3c(=O)c2c1
→ -1.8 | .
> Cc1ccc2nc(SC/C(O)=C(\C#N)c3nc4ccccc4[nH]3)[nH]c2c1
→ . | -27
> COc1cc(NC(C)=O)ccc1-c1cc2ccccc2oc1=O
→ -1.9 | 14
> O=C(CC(=O)NC1CCCCCC1)Nc1ccc2nc3n(c(=O)c2c1)CCCCC3
→ . | -14
> CC(Nc1ccc(Cl)cc1)C(=O)Nc1ccc(S(N)(=O)=O)cc1 (stereo unspecified)
→ . | -3
> Cc1ccc(OCCNCCN)c(Br)c1
→ 1.8 | 16
> CCOC(=O)c1cnc2c(OC)cccc2c1N1CCN(c2ccc(OC)cc2)CC1
→ . | 41
> O=C(O)Cn1c(=O)oc2ccccc21
→ 0.0 | 3
> Cc1ccc(S(=O)(=O)N2CCC[C@H]2C(=O)N2CCN(Cc3nc4ccccc4s3)CC2)cc1
→ . | 6
> Oc1ccc(Br)cc1C=Nc1ccc(F)c(F)c1
→ 4.3 | .

# Continued; the last 4 above are carried over.
# Every second line gives: MgrA-DNA mod | Sa helicase inh
> CCOC(=O)c1cnc2c(OC)cccc2c1N1CCN(c2ccc(OC)cc2)CC1
→ . | 41
> O=C(O)Cn1c(=O)oc2ccccc21
→ 0.0 | 3
> Cc1ccc(S(=O)(=O)N2CCC[C@H]2C(=O)N2CCN(Cc3nc4ccccc4s3)CC2)cc1
→ . | 6
> Oc1ccc(Br)cc1C=Nc1ccc(F)c(F)c1
→ 4.3 | .
> O=C(Nc1ccncc1)c1snc2ccc(Cl)cc12
→ 1.1 | -17
> Cc1cc(C)c2c(n1)sc1c3c(c(=O)[nH]c12)C(c1cccc(Cl)c1)C(C#N)=C(N)O3 (stereo unspecified)
→ -6.3 | -1
> CN(CC(=O)C(C#N)c1ccccc1)C1CCCCC1 (stereo unspecified)
→ 3.2 | -15
> CCC(=O)N1CCc2cc(Br)cc(S(=O)(=O)N3CCN(c4ccc(OC)cc4)CC3)c21
→ . | 8
> CC(=O)Nc1ccc(CN(CCN(C)C)Cc2ccccc2)cc1
→ -2.2 | 12
> C=CCn1c(SCC(=O)N2CCN(CCO)CC2)nc2sc3c(c2c1=O)CCC3
→ . | 3
> COc1ccc(-c2noc(CC3=NS(=O)(=O)c4ccccc4N3)n2)cc1
→ . | -8
> CCOC(=O)NC(=S)Nc1cc(C)cc(C)n1
→ . | -12
> Cc1nnc(SCC(=O)N2CCOCC2)s1
→ 0.6 | -17
> CC1(C)C(=O)Nc2ccccc2N1C(=O)CSc1nnc2ccccn12
→ . | 5
> Cc1cc(C)cc(NC(=O)C2CCN(Cc3cnn(-c4ccccc4)c3-n3cccc3)CC2)c1
→ . | -22
> CCCNC(=O)CCc1nc(-c2ccc(C(C)(C)C)cc2)no1
→ . | -3
> CCn1c(C)cc(/C=C2/SC(=S)NC2=O)c1C
→ 10 | 2
> COc1ccccc1NC(=O)Nc1c(SC)nsc1SC
→ . | 1
> COc1ccc(S(=O)(=O)N(CC(=O)O)c2cc(Cl)ccc2OC)cc1OC
→ -1.9 | 6
> O=C(CCc1nc2ccccc2[nH]1)NCc1ccc2c(c1)OCO2
→ . | 7
> O=C(Nc1ccccc1)C1CCN(C(=O)c2cccs2)CC1
→ -1.9 | -6
> CCC(C)NC(=O)c1ccccc1-c1ccccc1C(=O)NC(C)CC (stereo unspecified)
→ -0.6 | 11
> Cc1sc2nc(CSC(C)C(=O)Nc3nnc(C4CC4)s3)[nH]c(=O)c2c1C (stereo unspecified)
→ . | -8
> CCOC(=O)c1c(CC(C)C)csc1NC=C(C#N)C#N
→ . | -11
> CC(=O)O[C@]1(C(C)=O)CC[C@H]2[C@@H]3C=C(C)C4=CC(=O)CC[C@]4(C)[C@H]3CC[C@@]21C
→ 1.4 | .
> N=c1sccn1CC(=O)NCc1cccs1
→ . | -8
> Cc1csc(SCc2ccccc2C(=O)OCC(=O)Nc2nnc(-c3ccccc3)o2)n1
→ . | 21
> N#Cc1cnc(Nc2ccccc2)nc1
→ -1.1 | .
> CC(=O)NC(C(=O)N1CCN(S(=O)(=O)c2ccc(C)cc2)CC1)C(C)C (stereo unspecified)
→ . | -13
> COCCCNC1=C(C#N)C(=O)NC(c2ccc(O)c(OC)c2)S1 (stereo unspecified)
→ -1.4 | .
> COC(=O)C1=C(C)NC(C)=C(C(=O)OC)C1C(=O)OCc1nc2ccccc2c(=O)n1CC#N
→ . | 13
> COc1ccc(NCc2ccc[nH]2)cc1
→ 0.9 | .
> Cn1c(=O)c2c(O)c(C=NCc3cccnc3)c(=O)n(C)c2n(C)c1=O
→ . | 25
> Cc1cc(OCC#N)nc(N)n1
→ 1.4 | 1
> Cc1cccc2nc(CNc3ccc(I)cc3)cn12
→ . | -7
> O=C(O)c1cc(S(=O)(=O)N2CCCC2)ccc1O
→ -0.9 | 9
> CC(C)n1ncc2c1N=C(c1cccs1)N(C)C2c1ccccc1 (stereo unspecified)
→ . | 28
> Cn1nc(OCC(N)=O)ccc1=O
→ 1.6 | 2
> O=C(COC(=O)C1CC=CCC1C(=O)OCC(=O)c1ccc(Cl)cc1)c1ccc(Cl)cc1 (stereo unspecified)
→ 2.5 | 7
> CC(NC(=O)c1cc(=O)[nH]c2ccc(Br)cc12)c1ccccc1 (stereo unspecified)
→ . | 0
> COc1ccc(-n2c(CCC(=O)OCC(=O)N3CCCCC3C)nc3ccccc3c2=O)c(OC)c1 (stereo unspecified)
→ . | -79
> O=C(CSc1nnc2sc3ccccc3n12)c1ccco1
→ . | -26
> N#CC1=C2SCN(Cc3ccccc3)CN2C(=O)CC1c1ccccc1 (stereo unspecified)
→ 1.1 | 12
> CC(C)C(=O)NC1CCCCCCCCCCC1
→ 0.7 | 1
> O=C1C2C3C=CC(C3)C2C(=O)N1CCCCN1C(=O)C2C3C=CC(C3)C2C1=O (stereo unspecified)
→ -2.3 | 1
> COC(=O)C1=C(C)OC(N)=C(C#N)C1c1ccco1 (stereo unspecified)
→ 3.0 | 16
> COc1ccc(C=NCc2ccc(OC)cc2)cc1
→ -1.4 | .
> Cc1ccc(SCC(=O)c2ccc(CC(=O)O)s2)cc1
→ 2.2 | .
> CC(C)(C)c1cc(N)n(-c2ccccc2)n1
→ -1.4 | -20
> O=C(Cn1nnc(-c2ccc(Cl)cc2)n1)NC1CCS(=O)(=O)C1 (stereo unspecified)
→ . | 10
> CC(=O)Nc1ccc(S(=O)(=O)N2c3ccccc3NC(=O)CC2C)c(Cl)c1 (stereo unspecified)
→ . | -10
> CN(C)S(=O)(=O)c1cccc(CSc2nnc(-c3ccccc3Br)o2)c1
→ . | 6
> Cc1nn(-c2ccccc2)c2nc(-c3cccs3)cc(-c3nnco3)c12
→ . | -13
> COC(=O)CN1C(=O)S/C(=C\c2ccccc2)C1=O
→ . | 1
> COc1ccc(S(=O)(=O)N2CC(O)C[C@H]2C(=O)OCC(=O)N2CCCCCC2)cc1 (stereo partly specified)
→ . | 16
> CNS(=O)(=O)c1cccc(C(=O)OCC(=O)Nc2ccc(N3CCCCC3)cc2)c1
→ . | -8
> Cc1nc(SCC(=O)Nc2cccc(C(F)(F)F)c2)c2cnn(-c3ccccc3)c2n1
→ . | 17
> O=C(Cc1cn2ccsc2n1)OCC(=O)N1CCc2ccccc21
→ . | 1
> CC(=O)N1CC(C(=O)N2CCN(S(=O)(=O)c3ccc4c(c3)CCCC4)CC2)Oc2ccccc21 (stereo unspecified)
→ . | 0
> Cc1cc(C(F)(F)F)nn1Cc1ccc(C(=O)O)o1
→ 0.3 | 8
> O=C(CN1CCN(c2nc3cc(Cl)ccc3s2)CC1)c1ccccc1
→ . | 2
> O=[N+]([O-])c1ccc(-c2ccc(I)cc2)cc1
→ -0.9 | .
> O=C(OC(CN1CCCCC1)CN1CCCCC1)c1ccccc1
→ 2.5 | .
> CSC1=N/C(=C\c2ccc3c(c2)OCO3)C(=O)S1
→ 5.3 | -7

# Following part:
# Every second line gives: MgrA-DNA mod | Sa helicase inh
> Cc1sc(C(=O)NCCc2ccccc2)c2nc(C)n(CC(=O)NCCc3ccccc3)c(=O)c12
→ . | -14
> OCC(O)CN(c1ccccc1)c1ccccc1 (stereo unspecified)
→ -1.8 | 15
> O=C(/C=C\c1cccs1)N1CCN(Cc2ccc3c(c2)OCO3)CC1
→ . | 6
> CC(C)Cc1ccc(S(=O)(=O)N2c3cc(F)ccc3CCC2C)cc1 (stereo unspecified)
→ 0.7 | 3
> CCOC(=O)c1noc(NC(=O)c2ccc(C(F)(F)F)cc2)c1-c1ccccc1
→ . | -14

# Not all compounds are listed; the hit share may differ from the screen's.
